DUX4 txn inh: inhibitors of DUX4-driven ZSCAN4 reporter expression, primary screen, 293T cells, Gaussia and Italica luciferase; 37,000 compounds, 0.8% hits; 293T-iDUX4 ZSCAN4-Gaussia luciferase reporter, 24 h; hits give low values; activity change, negative = inhibition, % (no concentration beside the values); AID 1224904, 2016;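 active means -10% or lower and over 25 points stronger than a control reporter; inconclusive means -10% or lower with a smaller gap; inactive means above -10%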;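 further: 0% = median of neutral control wells and -100% = median of positive control wells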
DUX4 txn inh difference: recorded beside DUX4 txn inh, whose call it bears; Gaussia minus Italica difference, %; measured here: selective DUX4 reporter inhibition;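 worked out from the two reporters; negative = selective loss of the DUX4 reporter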
DUX4 txn inh control: further read-out of DUX4 txn inh, marked with its call; activity change, negative = inhibition, %; measured here: Italica tet-on control reporter;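 0 = neutral control and -100 = positive control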
Numbers without * were called inactive; ? = inconclusive; · = no result given. These rows are one share of the data (hit frequency here may not be typical).

SMILES	DUX4 txn inh	DUX4 txn inh difference	DUX4 txn inh control
CCC(=O)N(C)C[C@@H]1[C@@H](c2ccc(C3=CCCCC3)cc2)[C@H](CO)N1C(=O)CC	2	2	0.7
Cc1noc(C)c1S(=O)(=O)N(C)C[C@H]1OCCCC[C@H](C)Oc2ccc(NC(=O)CCC(F)(F)F)cc2C(=O)N([C@@H](C)CO)C[C@H]1C	1	2	-0.8
COc1ccc2c3c([nH]c2c1)[C@H](CO)N(C(=O)Nc1ccccc1F)CC31CN(C(=O)C2CC2)C1	1	-3	4.1
OC[C@@H]1[C@@H](c2ccc(-c3ccc(F)cc3)cc2)[C@@H]2CN(CCC(F)(F)F)CCCCN12	?	·	·
C[C@H](NC(=O)[C@H]1[C@H](CO)[C@H]2Cn3c(cccc3=O)[C@@H]1N2C(=O)C1CCC1)c1ccccc1	1	-3	3.8
O=C([C@@H]1[C@@H](CO)[C@@H]2Cn3c(ccc(-c4ccccc4)c3=O)[C@H]1N2CCC(F)(F)F)N1CCCCC1	5	2	2.6
COCC(=O)NC[C@H]1[C@H](c2ccccc2)[C@@H](CO)N1C(=O)c1ccccc1	2	-1	2.9
O=C(Cc1ccccn1)N1CC2(C1)[C@@H](c1ccccc1)[C@@H](CO)N2C(=O)c1ccccc1	8	6	1.6
CNC(=O)C[C@H]1CC[C@@H]2[C@H](COC[C@@H](O)CN2S(=O)(=O)c2ccccc2Cl)O1	2	-2	4.4
O=C(c1ccc(F)cc1)N1C[C@@H]2N[C@H](C1)C2c1ccc(-c2cncnc2)cc1 (stereo partly drawn)	5	-4	8.9
C[C@H]1CN([C@@H](C)CO)C(=O)c2cc(NC(=O)c3ccncc3)ccc2O[C@H]1CN(C)CC1CCCCC1	1	2	-1.1
C[C@@H]1CN([C@@H](C)CO)C(=O)CCCn2nncc2CO[C@H]1CN(C)S(=O)(=O)c1ccc(F)cc1	-5	-7	2.6
C/C=C/c1ccc([C@H]2[C@@H](CO)N(C(C)=O)[C@H]2CNC(=O)NCCC)cc1	-4	-4	0.1
COC(=O)C[C@@H]1CC[C@@H]2[C@H](COc3ccc(NS(=O)(=O)c4ccccc4Cl)cc3C(=O)N2C)O1	-4	-5	0.7
COc1ccc2c3c([nH]c2c1)[C@@H](CO)N(C(=O)c1ccccc1)CC31CCN(C(=O)c2cccc(F)c2)CC1	?	·	·
CCNC(=O)C[C@@H]1CC[C@H]2[C@H](COc3ccc(NC(=O)c4ccc(F)c(F)c4)cc3C(=O)N2C)O1	2	-5	6.3
CC(C)NC(=O)N1[C@@H]2c3cccc(=O)n3C[C@@H]2[C@@H](CO)[C@@H]1C(=O)N1CCc2ccccc2C1	2	-2	3.9
COc1ccc2c3c([nH]c2c1)[C@@H](CO)N(C(=O)Nc1cccc(F)c1)CC31CCN(S(=O)(=O)c2cccc(C)c2)CC1	?	·	·
Cc1noc(C)c1S(=O)(=O)Nc1ccc2c(c1)C(=O)N([C@H](C)CO)C[C@@H](C)[C@H](CN(C)Cc1ccc(C(=O)Nc3ccccc3N)cc1)O2	3	3	-0.3
CN(C)CCCNC(=O)C[C@H]1CC[C@@H]2[C@H](COC[C@H](O)CN2Cc2cc(F)cc(F)c2)O1	7	9	-2.2
CO[C@@H]1CN(C)C(=O)c2ccc(NS(C)(=O)=O)cc2OC[C@H](C)N(C(=O)CN(C)C)C[C@@H]1C	-2	-7	4.9
COc1ccc2c3c([nH]c2c1)[C@@H](CO)N(Cc1cccc(F)c1)CC31CN(C(C)=O)C1	?	·	·
CO[C@@H]1CN(C)C(=O)c2ccc(NC(C)=O)cc2OC[C@H](C)N(C(=O)c2ccccc2)C[C@H]1C	3	-2	4.9
CCC(=O)N(C)C[C@@H]1Oc2ncc(C#CC(C)C)cc2C(=O)N([C@H](C)CO)C[C@@H]1C	5	3	2.2
COc1ccc(S(=O)(=O)N2C[C@H](O)COC[C@@H]3O[C@@H](CC(=O)NCc4ccc(Cl)c(Cl)c4)CC[C@H]32)cc1	-7	-4	-3.4

An excerpt taken from the entries so far, as a working copy:
SMILES	DUX4 txn inh	DUX4 txn inh difference	DUX4 txn inh control
COc1ccc2c3c([nH]c2c1)[C@@H](CO)N(Cc1cccc(F)c1)CC31CN(C(C)=O)C1	?	·	·
CO[C@@H]1CN(C)C(=O)c2ccc(NC(C)=O)cc2OC[C@H](C)N(C(=O)c2ccccc2)C[C@H]1C	3	-2	4.9
CCC(=O)N(C)C[C@@H]1Oc2ncc(C#CC(C)C)cc2C(=O)N([C@H](C)CO)C[C@@H]1C	5	3	2.2
COc1ccc(S(=O)(=O)N2C[C@H](O)COC[C@@H]3O[C@@H](CC(=O)NCc4ccc(Cl)c(Cl)c4)CC[C@H]32)cc1	-7	-4	-3.4

Carrying on:
SMILES	DUX4 txn inh	DUX4 txn inh difference	DUX4 txn inh control
CCNC(=O)C[C@H]1CC[C@H]2[C@@H](COc3ccc(NC(=O)Nc4ccccc4Cl)cc3C(=O)N2C)O1	0	-5	4.2
CO[C@H]1CN(C)C(=O)c2ccc(NC(=O)C3CCOCC3)cc2OC[C@H](C)N(C)C[C@@H]1C	0	-3	2.9
C[C@H](O)C#Cc1cnc2c(c1)C(=O)N([C@@H](C)CO)C[C@H](C)[C@H](CN(C)C(=O)c1ccccc1F)O2	0	3	-2.6
Cc1cccc(-c2ccc([C@@H]3[C@@H](CO)N4C(=O)CN(C(=O)NC5CCCCC5)C[C@H]34)cc2)c1	2	0	1.2
C[C@@H]1CN([C@@H](C)CO)C(=O)c2cc(NC(=O)NC3CCCCC3)ccc2O[C@@H](C)CCCCO[C@H]1CN(C)C(=O)c1ccncc1	1	-1	2.3
O=C(C[C@H]1CC[C@H]2[C@@H](COC[C@@H](O)CN2S(=O)(=O)c2cccc(F)c2)O1)NC1CCC1	5	2	3.6
C[C@@H]1CCCCO[C@@H](CN(C)C(=O)CCCN(C)C)[C@H](C)CN([C@@H](C)CO)C(=O)c2cc(NC(=O)c3ccccc3)ccc2O1	-1	0	-0.5
O=C(C[C@H]1C[C@@H]2c3cc(NC(=O)C4CCC4)ccc3O[C@@H]2[C@@H](CO)O1)NCc1ccccc1F	-5	-1	-4.2
COc1ccccc1NC(=O)N1C[C@H]2[C@@H](c3ccccc31)[C@@H](CO)N2Cc1ccccc1F	1	-2	2.7
CC(=O)N1[C@H](C(=O)N[C@@H](C)c2ccccc2)[C@@H](CO)[C@@H]2Cn3c(cccc3=O)[C@@H]21	-6	-5	-1.2
O=C(Nc1ccc(Cl)cc1)N1C[C@H]2[C@@H](c3ccccc31)[C@H](CO)N2C(=O)c1ccccn1	-1	-6	4.6
CC(=O)NC[C@@H]1[C@@H](c2ccc(-c3cccc(F)c3)cc2)[C@H](CO)N1C(C)=O	0	-3	3.0
CCCC(=O)Nc1ccc2c(c1)C(=O)N(C)[C@@H]1CC[C@@H](CC(=O)NCCc3ccncc3)O[C@H]1CO2	1	3	-1.6
COc1ccc(C#Cc2ccc3c(c2)[C@@H]2[C@@H](CCN2C(=O)C2CCCCC2)[C@@H](CO)N3)cc1	4	-10	14
C[C@H](CO)N1C[C@H](C)[C@H](CN(C)C(=O)Nc2ccc(-c3cccs3)cc2)OCc2cn(nn2)CCCC1=O	-3	1	-3.4
CS(=O)(=O)Nc1ccc2c(c1)[C@H]1C[C@@H](CC(=O)NCc3cc(F)ccc3F)O[C@@H](CO)[C@H]1O2	7	12	-4.7
CCC(=O)N(C)C[C@@H]1Oc2cc(C#Cc3ccncc3)ccc2S(=O)(=O)N([C@@H](C)CO)C[C@@H]1C	0	-1	0.4
COc1cccc(-c2ccc3c(c2)[C@@H]2[C@@H](CCN2C(=O)c2cccc(F)c2)[C@H](CO)N3)c1	?	·	·
C[C@@H](NC(=O)C[C@@H]1C[C@H]2c3cc(NC(=O)C4CCOCC4)ccc3O[C@H]2[C@@H](CO)O1)c1ccccc1	-2	-2	-0.1
COc1cccc(CNC(=O)C[C@H]2CC[C@@H]3[C@H](COc4ccc(NC(=O)c5cccs5)cc4C(=O)N3C)O2)c1	-2	-1	-0.5
CC(C)[C@@H]1C(=O)N[C@H](c2ccccc2)CC=CC[C@@H](C)Oc2ccccc2C(=O)N1C (mixture of isomers)	0	-1	1.1
C/C=C/c1cccc(-c2nc(C(=O)NCc3ccncc3)cc3c2[C@@H](CCO)N([S@](=O)C(C)(C)C)C3)c1	2	1	1.8
O=C(CC1CC1)N1CC(=O)N2[C@H](CO)[C@@H](c3ccc(-c4cccnc4)cc3)[C@@H]2C1	9	-1	11
COc1ccccc1C#Cc1cnc2c(c1)C(=O)N([C@@H](C)CO)C[C@H](C)[C@@H](CN(C)S(=O)(=O)c1cn(C)cn1)O2	-6	-5	-1.1
Cc1cccc(-c2ccc([C@H]3[C@H]4CN(Cc5ccncc5)CCCCN4[C@H]3CO)cc2)c1	?	·	·

Structural class: the compounds so far containing a thiophene ring, fused or not.
SMILES	DUX4 txn inh	DUX4 txn inh difference	DUX4 txn inh control
C[C@H](CO)N1C[C@H](C)[C@H](CN(C)C(=O)Nc2ccc(-c3cccs3)cc2)OCc2cn(nn2)CCCC1=O	-3	1	-3.4
COc1cccc(CNC(=O)C[C@H]2CC[C@@H]3[C@H](COc4ccc(NC(=O)c5cccs5)cc4C(=O)N3C)O2)c1	-2	-1	-0.5

(further entries)
SMILES	DUX4 txn inh	DUX4 txn inh difference	DUX4 txn inh control
C[C@H](O)C#Cc1ccc([C@@H]2[C@H]3CN(C(=O)c4cccc(F)c4)CCCCN3[C@H]2CO)cc1	-9	3	-13
COCC(=O)N1[C@H](C(=O)N2CCCCC2)[C@@H](CO)[C@@H]2Cn3c(ccc(C4=CCCC4)c3=O)[C@@H]21	1	-2	2.6
COc1ccccc1C(=O)Nc1ccc2c(c1)C(=O)N(C)C[C@@H](OC)[C@@H](C)CN(C(C)=O)[C@H](C)CO2	5	-5	9.2
CO[C@H]1CC[C@@H]2CCOc3ccc(C#N)cc3C(=O)N(C)C[C@@H](C)C(=O)N(C)C[C@H]1O2	1	0	0.7
CC(C)(O)C#Cc1ccc([C@@H]2[C@H]3CN(Cc4ccccc4F)CCCCN3[C@H]2CO)cc1	7	-4	10
O=C(O)C[C@H]1CC[C@H]2[C@@H](COC[C@H](O)CN2S(=O)(=O)c2ccc(F)cc2)O1	0	0	-0.7
COCC(=O)N1C[C@@H]2[C@H](c3ccccc31)[C@H](CO)N2Cc1ccc(OC)cc1	1	4	-2.5
CN(C)CC#Cc1ccc([C@H]2[C@@H](CO)N(C(=O)C3CCC3)[C@H]2C#N)cc1	-3	-5	1.4
C[C@@H]1CN([C@H](C)CO)C(=O)CCCn2nncc2CO[C@@H]1CN(C)C	0	0	-0.8
O=C(c1ccncc1)N1CC2(C1)[C@@H](c1ccccc1)[C@@H](CO)N2C(=O)c1ccncc1	8	0	7.1
COc1ccc2c3c(n(C)c2c1)[C@H](CO)N(Cc1ccccc1OC)CC31CN(C(=O)C2CC2)C1	11	17	-6.0
COCCNC(=O)C[C@H]1CC[C@H]2[C@@H](COc3ccc(NC(=O)CC(F)(F)F)cc3C(=O)N2C)O1	1	3	-2.0
COc1ccc(S(=O)(=O)Nc2ccc3c(c2)C(=O)N([C@@H](C)CO)C[C@@H](C)[C@H](CN(C)C(=O)Nc2c(C)noc2C)OCCCC[C@H](C)O3)cc1	3	1	2.1
C[C@@H]1CN([C@H](C)CO)C(=O)c2cccc(NC(=O)C3CCCCC3)c2O[C@@H]1CN(C)Cc1ccc(Cl)c(Cl)c1	2	2	0.1
CCS(=O)(=O)N[C@H]1C=C[C@@H](CC(=O)Nc2ccc(-c3ccccc3)cc2)O[C@@H]1CO	1	-2	2.9
C[C@@H]1CN([C@H](C)CO)C(=O)c2c(c3ccccc3n2C)-c2ccccc2CO[C@H]1CN(C)Cc1cccc(O)c1	4	0	4.1
O=C(c1ccccn1)N1CC(=O)N2[C@@H](CO)[C@H](c3ccc(C#CC4CCCC4)cc3)[C@@H]2C1	?	·	·
O=C(C[C@@H]1C[C@@H]2c3cc(NC(=O)Nc4ccc(C(F)(F)F)cc4)ccc3O[C@@H]2[C@H](CO)O1)NC1CCCCC1	2	8	-6.0
C[C@@H](O)C#Cc1ccc([C@H]2[C@@H](CO)N3CCCCN(CC4CC4)C[C@H]23)cc1	8	2	6.4
CCC(=O)N1C[C@@H](O)COC[C@H]2O[C@@H](CC(=O)NCc3cc(F)cc(F)c3)CC[C@@H]21	10	8	1.9
C[C@@H]1CN([C@H](C)CO)C(=O)c2c(c3ccccc3n2C)-c2ccccc2CO[C@H]1CN(C)S(C)(=O)=O	8	7	0.6
CN(C)CCCNC(=O)C[C@@H]1CC[C@H]2[C@@H](COc3ccc(NC(=O)C4CCC4)cc3C(=O)N2C)O1	-4	-4	-0.2
CN(C)CCCNC(=O)C[C@H]1CC[C@H]2[C@H](COc3ccc(NC(=O)C4CCC4)cc3C(=O)N2C)O1	3	0	3.5

Arranged by molecular weight (descending): 4 of the compounds above.
SMILES	DUX4 txn inh	DUX4 txn inh difference	DUX4 txn inh control
C[C@@H]1CN([C@H](C)CO)C(=O)c2cccc(NC(=O)C3CCCCC3)c2O[C@@H]1CN(C)Cc1ccc(Cl)c(Cl)c1	2	2	0.1
C[C@@H]1CN([C@H](C)CO)C(=O)c2c(c3ccccc3n2C)-c2ccccc2CO[C@H]1CN(C)S(C)(=O)=O	8	7	0.6
O=C(c1ccccn1)N1CC(=O)N2[C@@H](CO)[C@H](c3ccc(C#CC4CCCC4)cc3)[C@@H]2C1	?	·	·
O=C(c1ccncc1)N1CC2(C1)[C@@H](c1ccccc1)[C@@H](CO)N2C(=O)c1ccncc1	8	0	7.1
